# KCNQ2 enhance = potentiators of rat KCNQ2 potassium channel. O88943. CHO-K1 KCNQ2, FluxOR thallium flux fluorescence; stronger effect = higher value. B-score at 10 µM. actives 0.54% (n = 310,000). AID 2239;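 active means fluorescence ratio B-score at least 3 SD of library B-scores, with initial fluorescence B-score within 3 SD, cut at about 5.3 in these data; same plate scores as AID 2156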;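 further: B-score of peak minus minimum over baseline fluorescence ratio after K+ and Tl+ stimulus; positive B-score means potentiation of KCNQ2 with more thallium influx and brighter signal; only the inactives scoring about 0 or higher are listed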
# Target sequence (O88943 whole entry, looked up): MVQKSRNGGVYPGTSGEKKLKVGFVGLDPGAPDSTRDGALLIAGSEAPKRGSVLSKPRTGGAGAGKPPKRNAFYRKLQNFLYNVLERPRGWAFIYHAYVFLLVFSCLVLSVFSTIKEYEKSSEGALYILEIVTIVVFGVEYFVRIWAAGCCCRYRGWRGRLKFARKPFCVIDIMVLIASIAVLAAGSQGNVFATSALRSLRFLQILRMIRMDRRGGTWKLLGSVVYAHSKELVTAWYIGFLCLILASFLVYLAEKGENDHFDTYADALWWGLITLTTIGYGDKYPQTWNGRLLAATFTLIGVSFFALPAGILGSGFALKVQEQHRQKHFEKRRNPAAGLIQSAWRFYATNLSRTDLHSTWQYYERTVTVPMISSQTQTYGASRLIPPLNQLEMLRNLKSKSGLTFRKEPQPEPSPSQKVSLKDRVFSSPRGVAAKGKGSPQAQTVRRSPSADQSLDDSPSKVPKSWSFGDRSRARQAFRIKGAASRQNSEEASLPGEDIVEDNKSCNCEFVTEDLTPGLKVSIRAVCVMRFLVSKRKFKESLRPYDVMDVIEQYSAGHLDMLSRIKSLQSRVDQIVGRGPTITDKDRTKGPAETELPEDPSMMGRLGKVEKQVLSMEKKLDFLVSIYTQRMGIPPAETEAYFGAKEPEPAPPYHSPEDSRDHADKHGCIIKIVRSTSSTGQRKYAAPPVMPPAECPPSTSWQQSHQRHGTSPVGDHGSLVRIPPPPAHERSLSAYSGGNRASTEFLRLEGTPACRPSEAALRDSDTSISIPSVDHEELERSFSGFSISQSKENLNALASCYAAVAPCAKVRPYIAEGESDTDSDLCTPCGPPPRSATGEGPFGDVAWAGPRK
# KCNQ2 enhance baseline = recorded beside KCNQ2 enhance, whose call it bears; B-score; compound at 10 µM; measured here: initial fluorescence intensity artifact check;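 brightness before thallium and not channel activity; 0 = typical well and far values either way flag optical interference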
# Starred values were filed as active, the others as inactive. Some of the compounds tested; the hit share may differ from the screen's.
# The first 5 entries, to show the layout:
KCNQ2 enhance	KCNQ2 enhance baseline	canonical_smiles
1.3	-1.6	CC1CCN(C(=O)COC(=O)c2ccc(=O)n(Cc3ccccc3)n2)CC1
3.1	-2.1	CCOC(=O)c1cccc(NC(=O)CCn2nnc3ccccc32)c1
0.42	-0.36	CCOc1cc(C(=O)NC(CC(=O)O)c2ccc(OC3CCCC3)cc2)cc(OCC)c1OCC (centres undefined)
0.13	-0.13	COc1cc(S(=O)(=O)NC2CCCC2)c(OC)cc1Cl
1.6	2.3	COc1ccccc1N1CCN(C(=O)c2ccc3nc(-c4ccco4)c(-c4ccco4)nc3c2)CC1

# All compounds of this part, from the start:
KCNQ2 enhance	KCNQ2 enhance baseline	canonical_smiles
1.3	-1.6	CC1CCN(C(=O)COC(=O)c2ccc(=O)n(Cc3ccccc3)n2)CC1
3.1	-2.1	CCOC(=O)c1cccc(NC(=O)CCn2nnc3ccccc32)c1
0.42	-0.36	CCOc1cc(C(=O)NC(CC(=O)O)c2ccc(OC3CCCC3)cc2)cc(OCC)c1OCC (centres undefined)
0.13	-0.13	COc1cc(S(=O)(=O)NC2CCCC2)c(OC)cc1Cl
1.6	2.3	COc1ccccc1N1CCN(C(=O)c2ccc3nc(-c4ccco4)c(-c4ccco4)nc3c2)CC1
0.83	-1	COc1ccc(CNC(=O)C(c2cccs2)N(C(=O)c2csnn2)C2CC2)cc1 (centres undefined)
0.52	0.01	Cc1ccc(CN(Cc2ccc(C)o2)C(=S)NCC(=O)O)cc1
0.05	3.2	O=C(C1CC(=O)N(c2ccc(F)cc2)C1)N1CCN(c2ccc(F)cc2)CC1 (centres undefined)
0.66	0.84	O=C(O)CS(=O)(=O)CC(=O)NCc1cccc(C(F)(F)F)c1
0.18	1.1	CC(=O)N1CCN(CC(=O)Nc2ccc(C)c(F)c2)CC1
2.2	-1.1	Cc1c(NC(=O)CSc2nnc(-c3ccncc3)o2)c(=O)n(-c2ccccc2)n1C
2	0.09	CCCCNC(=O)CN(c1ccc(Cl)c(Cl)c1)S(C)(=O)=O
1.1	0.05	Nn1c(SCC(=O)NCc2ccccc2)nnc1C1CC1
0.05	-0.97	CC(C)/C(=N\NC(=O)Nc1ccccc1)c1ccccc1
0.11	-0.26	Cc1c(NC(=O)COC(=O)C2(c3ccc(F)cc3)CCCC2)c(=O)n(-c2ccccc2)n1C
0.78	2.4	COc1cccc2c(=O)n(CC(=O)Nc3ccccc3)ccc12
2.3	1.3	Cc1c(CCC(=O)O)c(=O)oc2cc3oc4c(c3cc12)CCCC4
0.1	0.67	O=C(O)c1cc(-c2ccc3c(c2)OCO3)nc2ccccc12
0.78	0.28	COC(=O)Cc1c(C)c2ccc(OCC(=O)N(C)C3CCS(=O)(=O)C3)cc2oc1=O (centres undefined)
1.7	-1.8	COC(=O)CSc1nsc(SCC(=O)OC)c1C#N
1.4	-1.6	O=c1[nH]ncn1-c1cccc(C(F)(F)F)c1
1.8	-1	C[C@H](C(=O)CC(=O)OC(C)(C)C)[C@H](O)c1ccc(C(F)(F)F)cc1
0.01	-1	CCOC(=O)C1=C(C)N(C)C(C)=C(C(=O)OCC)C1c1ccccn1
0.07	-1.5	CCN(CC)CCNC(=O)c1cc2c(-c3cccc(OC)c3)nn(C)c2s1
0.27	1.1	COc1ccccc1C(=O)Nc1nnc(S(=O)(=O)N2CCN(c3ccc(F)cc3)CC2)s1
0.56	-1.6	O=C(Cn1c(S(=O)(=O)Cc2ccccc2)nc2ccccc21)N1CCCCC1
0.38	-2.2	CC(C)C(NCc1c(Cl)cccc1Cl)C(=O)O (centres undefined)
1.3	-2.2	Cc1cc(C)n(CC(C)NC(=O)c2cc(COc3ccc(F)c(F)c3)on2)n1 (centres undefined)
1.1	0.63	O=C(c1ccccc1)C1CCN(C(=O)c2ccco2)CC1
0.14	0.76	O=C(NCC1COc2ccccc2O1)C1CCN(S(=O)(=O)c2cccc3nsnc23)CC1 (centres undefined)

# Six entries out of the list, arranged by number of heavy atoms, ascending:
KCNQ2 enhance	KCNQ2 enhance baseline	canonical_smiles
1.4	-1.6	O=c1[nH]ncn1-c1cccc(C(F)(F)F)c1
0.13	-0.13	COc1cc(S(=O)(=O)NC2CCCC2)c(OC)cc1Cl
0.18	1.1	CC(=O)N1CCN(CC(=O)Nc2ccc(C)c(F)c2)CC1
1.8	-1	C[C@H](C(=O)CC(=O)OC(C)(C)C)[C@H](O)c1ccc(C(F)(F)F)cc1
1.3	-1.6	CC1CCN(C(=O)COC(=O)c2ccc(=O)n(Cc3ccccc3)n2)CC1
2.2	-1.1	Cc1c(NC(=O)CSc2nnc(-c3ccncc3)o2)c(=O)n(-c2ccccc2)n1C

# Additional structures follow:
KCNQ2 enhance	KCNQ2 enhance baseline	canonical_smiles
15*	-0.17*	CCCc1nnc(NC(=O)c2nc(S(=O)(=O)Cc3cccc(C)c3)ncc2Cl)s1
0.08	0.66	CC(C)Oc1ccc(C(=O)OCC(=O)NCCNC(=O)COC(=O)c2ccc(OC(C)C)cc2)cc1
1	-1.3	CC(C)CC(c1nnnn1CC1CCCO1)N1CCN(C2CCCC2)CC1 (centres undefined)
0.25	1.1	Cc1cc(Cl)ccc1OCC(=O)Nc1ccncc1
0.82	-0.99	CC1CN(CC(=O)NN=C(c2ccccc2)c2ccccc2)CC(C)O1 (centres undefined)
1	-0.05	CCCCn1c(Oc2ccc(C(=O)OC)cc2)nc2c1c(=O)n(C)c(=O)n2C
0.83	-0.95	COc1ccc(S(=O)(=O)n2nc(OC(=O)C3CCCCC3)cc2N)cc1
0.07	-1.9	Cc1ccc2cc(CCNC(=O)C(=O)c3c[nH]c4ccccc34)c(=O)[nH]c2c1
0.23	-0.17	Cc1ccc(C)c(OCCOCCN2CC(C)OC(C)C2)c1C (centres undefined)
0.36	-1.4	Cc1cccc(N(CC(=O)NCc2ccco2)C(=O)CCC(=O)Nc2ccccn2)c1
2.5	0.17	CCCCCCCCCCSc1n[nH]c(N)n1
1.6	-0.82	CCN(CC)C(=O)CSc1ccccc1N
0.1	0.12	Cc1cccc(CCNC(=O)CC2C(=O)NCCN2Cc2ccccc2C)n1 (centres undefined)
0.37	0.55	CCOc1ccc(OCC(=O)Nc2ccc(S(=O)(=O)Nc3cc(C)nc(C)n3)cc2)cc1
0.41	0.63	C/C=C/C(=O)OCc1csc(CC(=O)Nc2ccccc2C)n1
1.1	0.77	CCOC(=O)c1csc(NC(=O)c2ccc(C#N)cc2)n1
6*	-0.12*	COc1cc(C(=S)N2CCCCC2)ccc1OCC(=O)Nc1ccc(F)cc1
0.96	2.3	Cc1cc(C(=O)N2CCOCC2)ccc1[N+](=O)[O-]
0.46	-0.85	Cc1ccc(-c2cc(C(=O)N3CCN(C(=O)c4ccco4)CC3)[nH]n2)cc1C
0.45	0.02	COC(=O)CNC(=O)COc1ccccc1
1.8	-1.7	O=C(CN(Cc1ccc(Cl)cc1)C(=O)CNS(=O)(=O)c1ccc(F)cc1)NCC1CCCO1 (centres undefined)
0.11	-0.24	CCn1c(C)cc(/C=C2/NC(=O)N(c3ccccc3)C2=O)c1C
2.5	-0.39	CCOC(=O)c1c(C)[nH]c(C(=O)C(C)Cl)c1C (centres undefined)
0.01	-1.8	Cc1cc2c(c(=O)n1C)C(C(C)C)C(C#N)=C(N)O2 (centres undefined)
1	-0.57	O=C(NCCC1=CCCCC1)C(=O)NCC1OCCCN1S(=O)(=O)c1ccc(F)cc1 (centres undefined)
0.41	-0.82	COc1ccccc1NC1=C(C)C(=O)CC1
0.17	-0.92	Cc1c(C(=O)N2CCN(c3ccccc3F)CC2)sc2ncn(CC(=O)N3CCOCC3)c(=O)c12
0.6	-0.02	CN1CCN(C(=O)c2cc(-c3cccc(Cl)c3)on2)CC1
1.5	-3.1	O=[n+]1cc(-c2ccccc2)n([O-])c2c1CCCCC2
1.7	-1.6	O=C(CCn1cccc1)NCc1ccc2c(c1)OCO2

# (cont.)
KCNQ2 enhance	KCNQ2 enhance baseline	canonical_smiles
0.02	1.7	O=c1[nH]c(NC2CCCCC2)c([N+](=O)[O-])c(=O)[nH]1
0.85	0.27	Cc1ccc(-n2c(C)cc(=O)cc2C)cc1[N+](=O)[O-]
0.95	0.8	CCN(CC)CCCNC(=O)Cn1ncn2cccc2c1=O
0.32	0.44	O=C(CCCCl)Oc1ccc2cc(-c3ccc4ccccc4n3)c(=O)oc2c1
0.65	-0.15	CN(CCc1ccccn1)C(=O)CN(C)S(=O)(=O)c1ccc2c(c1)c(=O)n(C)c(=O)n2C
1.6	0.61	Cc1ccc2cc(CN(c3ccccc3C)S(=O)(=O)c3ccccc3)c(=O)[nH]c2c1
1.8	0.08	O=C(CN1C(=O)/C(=C/c2ccco2)SC1=S)Nc1ccc(O)c(C(=O)O)c1
0.22	0.21	COc1ccccc1/C=N/NC(=O)c1ccc(N(C)S(=O)(=O)c2ccccc2)cc1
1.6	-0.76	O=C(c1cc(COc2ccc(F)cc2Cl)on1)N1CCC(OCc2cccnc2)CC1
0.73	1.9	CCOC(=O)NC(=O)/C(C#N)=C\NNc1ncc(C(F)(F)F)cc1Cl
0.86	2.2	COc1ccccc1N1CCN(c2ccc(N3C(=O)CCC3=O)cc2[N+](=O)[O-])CC1
0.17	0	COc1ccccc1N1C(=O)c2ccccc2NC1c1ccncc1 (centres undefined)
0.68	-1.4	COc1cc2ccccc2cc1C(=O)N1CCN(C(C)=O)CC1
0.92	1.2	COc1ccc(C(=S)N2CCOCC2)cc1OS(=O)(=O)c1ccc(Br)cc1
0.25	-0.16	COc1ccc(CCNc2nncc(=O)[nH]2)cc1OC
1.4	-1.2	Cc1ccc(N2C(=O)C3C=NNC3C2=O)cc1 (centres undefined)
0.8	-0.24	COC(=O)c1c(CCl)noc1C(=O)NC(C)C
0.94	0.04	Oc1ccc(-c2csc(Nc3ncccn3)n2)c(O)c1
2.3	3.8	Nn1c(Cc2ccccc2F)n[nH]c1=S
0.02	-0.92	CCn1cc(C(=O)O)c(=O)c2cnc(N3CCN(C(=S)NC(=O)c4ccc(Cl)cc4Cl)CC3)nc21
0.47	-0.26	CCCCN1C2CCCC1CC(NC(=O)C1CCCCC1)C2 (centres undefined)
1.6	0.06	COc1cccc(C(=O)Nc2ccc(C3CC3(Cl)Cl)cc2)c1 (centres undefined)
0.74	-1.2	COc1ccc(-c2ccnc(-c3ccc(OCCCF)cc3)n2)cc1
0.37	-0.65	O=C(c1ccncc1)N1CCc2ccccc2C1
0.03	0.37	C=C(C)CNC(=S)Nc1cccc2cnccc12
1.1	-0.86	O=C(NNC(=O)c1cccs1)c1ccc(Br)cc1
0.2	0.36	Cc1ccc(C(=O)COC(=O)CCN2C(=O)C3C4C=CC(C5CC45)C3C2=O)cc1 (centres undefined)
1.4	0.91	O=C(O)c1ccc(-c2nc(-c3ccc(Cl)cc3)cs2)cc1
0.4	0.34	O=C(Nc1ccc(S(=O)(=O)N2CCCCCC2)cc1)c1[nH]ncc1[N+](=O)[O-]
1.1	-0.39	CCn1c(C2CCN(S(=O)(=O)c3ccc(OC)cc3)CC2)n[nH]c1=S

# Other records
KCNQ2 enhance	KCNQ2 enhance baseline	canonical_smiles
0.57	1.1	C=CCN=C1SCC(=O)N1S(=O)(=O)c1ccc(C)cc1
0.75	-1.8	Cc1ccc(S(=O)(=O)Nc2nc(-c3ccc(F)cc3)cs2)cc1
1.1	-0.95	Cc1nc(N)c(Cc2ccc(Cl)cc2Cl)c(N)n1
0.52	-1.2	N#CC[C@H](Cc1ccccc1)N1CC[C@@H](O)CCC1=O
0.71	0.64	CN(CC(=O)Nc1ccccc1C(F)(F)F)C(=O)COc1ncnc2ccccc12
0.57	-3.8	O=C(O)C1CCCN1S(=O)(=O)c1cccc(S(=O)(=O)N2CCCC2C(=O)O)c1 (centres undefined)
0.85	-0.16	COc1cccc(CN2CC(C(=O)N3CCCCCC3)CCC2=O)c1 (centres undefined)
0.76	0.02	O=C(Nc1ccc(S(=O)(=O)Nc2ncccn2)cc1)c1cccc(S(=O)(=O)N2CCCC2)c1
0.19	1.6	COc1ccc(NC(=O)NCCN2CCN(c3cccc(Cl)c3)CC2)cc1
0.74	-0.04	CC(C)c1onc(C(=O)N2CCOCC2)c1[N+](=O)[O-]
0.54	0.63	COC(=O)c1ccc(C2SCC(=O)N2Cc2ccccc2)cc1 (centres undefined)
0.53	-0.15	COCCN(C(=O)CC(C)(C)C)c1nnc(-c2cccnc2)s1
0.24	2.3	CCOc1ccc(/C=N/n2c(C)nnc2C)cc1OC
0.03	0.94	CC1(C)CC(=O)C2=C(C1)N(c1ccccc1)C(N)=C(C#N)C2c1ccccc1 (centres undefined)
0.93	1.3	CC(=O)c1cccc(NS(=O)(=O)c2c(C)n[nH]c2C)c1
0.4	0.39	CN1C(=O)C2(C(C#N)=C(N)N(c3ccc(Cl)cc3)C3=C2C(=O)CC(C)(C)C3)c2ccccc21 (centres undefined)
1.3	-0.59	O=C(/C=C/Sc1ccc(C(F)(F)F)cn1)c1ccccc1
0.05	0.87	COc1cccc(COc2ncnc3sccc23)c1
0.04	0.54	OCCNc1nc(Nc2ccc(Cl)c(Cl)c2)nc2ccccc12
0.32	0.29	COc1ccccc1NCCC(=O)OCC(=O)NCc1ccco1
0.01	0	CCOc1ccccc1NC(=O)CSc1c(C)n[nH]c1C
0.3	0.02	Cc1nc2c(c(C)c1C#N)C(=O)c1ccccc1-2
1.5	-0.03	O=C(Oc1cccc(NC(=O)c2ccco2)c1)c1cccc(S(=O)(=O)N2CCCC2)c1
0.18	-0.01	COc1ccc(C(=O)N2c3ccc(F)cc3CCC2C)cc1OC (centres undefined)
0.47	-0.83	CCOC(=O)NCc1ccc2c(c1)OCO2
0.2	0.55	COc1ccc(-c2[nH]nc3oc(=O)cc(C)c23)cc1
0.33	-1.8	O=C(Nc1ccccc1Cl)c1cc[n+](Cc2ccc([N+](=O)[O-])cc2)cc1

# Looked up by compound from the list above (2):
KCNQ2 enhance	KCNQ2 enhance baseline	canonical_smiles
0.41	0.63	C/C=C/C(=O)OCc1csc(CC(=O)Nc2ccccc2C)n1
3.1	-2.1	CCOC(=O)c1cccc(NC(=O)CCn2nnc3ccccc32)c1
